# Mtb H37Rv – M. tuberculosis H37Rv growth inhibitors, H37Rv strain (AID 1626); M. tuberculosis H37Rv growth inhibition; higher % means a stronger effect; one-dose inhibition, % at 10 µM; IC50 in µM for titrated hits; 0.95% of 220,000 active;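 active = confirmed in a dose series; inconclusive = inhibition above 80% but not taken into the dose series; inactive = below 80% or under 30% at every dose of the series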;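 also: bacteria incubated seven days before Alamar blue readout; 0% = bacteria only wells and 100% = bacteria with antibiotic wells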
# Arbovirus anti – blocks arbovirus infection | arbovirus infection cell-based antiviral screen | inhibition, % at 10 µM | 0.37% of 200,000 active | AID 1251;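 active = inhibition from about 30%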;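 also: bluetongue infection of BSR cells; cell survival read as ATP light after 72 h; 0% = infected wells without compound and 100% = uninfected wells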
# Mtb betalactam – beta-lactam sensitization of Mtb H37Rv; 0.27% of 330,000 active; inhibition, % at 25 µM; M. tuberculosis H37Rv growth with meropenem, percent inhibition; hits of this screen are not shown here;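 active = about 74% or more and at least 40 points above the plate without the antibiotic, then above 30% in a dose series; inconclusive = first-round hits that could not be retested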;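 also: growth measured after seven days incubation then overnight dye step; 0% = bacteria only wells and 100% = bacteria with antibiotic; twin plates without the antibiotic show which effects depend on it; some results filed as inactive read as strong as hits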
# YopH PTP inh – blocks Yersinia enterocolitica YopH tyrosine phosphatase. fluorescence Ex485/Em525. inhibition, %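 (about 10 µM by stock and volumes)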. 0.16% of 140,000 active. AID 898;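 active = inhibition of 50% or more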;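 also: controls were vehicle for no effect and minimum signal wells for full effect; inactives centre near -20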
# RecA splice inh – blocks M. tuberculosis RecA intein splicing. P9WHJ3. cell-free RecA intein splicing, fluorescence. inhibition, %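 (about 9 µM by stock and volumes)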. 0.75% of 290,000 active; in the data active = inhibition above about 30%; inconclusive = no clear call, values can overlap the other calls;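 also: 0% = vehicle wells and 100% = reference inhibitor control wells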
# Target sequence (P9WHJ3 whole entry, looked up, canonical isoform): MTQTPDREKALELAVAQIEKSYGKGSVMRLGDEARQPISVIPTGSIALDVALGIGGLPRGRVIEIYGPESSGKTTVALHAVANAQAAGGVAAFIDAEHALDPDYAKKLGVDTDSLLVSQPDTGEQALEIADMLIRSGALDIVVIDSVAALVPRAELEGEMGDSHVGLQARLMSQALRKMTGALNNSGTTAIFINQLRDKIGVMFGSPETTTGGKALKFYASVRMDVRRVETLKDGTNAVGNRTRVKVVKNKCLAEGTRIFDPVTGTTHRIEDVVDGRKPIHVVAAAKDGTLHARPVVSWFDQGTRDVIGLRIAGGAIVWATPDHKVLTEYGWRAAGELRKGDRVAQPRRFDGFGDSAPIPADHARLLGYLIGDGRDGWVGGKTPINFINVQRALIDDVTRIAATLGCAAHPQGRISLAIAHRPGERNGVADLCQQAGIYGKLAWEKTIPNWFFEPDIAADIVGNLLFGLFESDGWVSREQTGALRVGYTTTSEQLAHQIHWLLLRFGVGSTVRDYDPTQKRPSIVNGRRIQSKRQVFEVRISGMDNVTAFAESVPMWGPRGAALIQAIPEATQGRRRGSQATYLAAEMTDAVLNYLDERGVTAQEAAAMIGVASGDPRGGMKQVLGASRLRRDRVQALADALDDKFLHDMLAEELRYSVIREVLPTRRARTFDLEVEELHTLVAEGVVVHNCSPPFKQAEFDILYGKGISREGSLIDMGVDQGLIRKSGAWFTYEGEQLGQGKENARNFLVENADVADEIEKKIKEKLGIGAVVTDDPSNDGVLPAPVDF
# Arbovirus anti repeat – also measured in Arbovirus anti; calls as there; inhibition, %; measured here: 10K subset replicate screen; many hits read low in the repeat;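 first of two repeat runs on a subset; 0% = infected and 100% = uninfected wells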
# * marks the source's active call; other numbers are inactive results; u = inconclusive; x = not tested or not shown. Some of the compounds tested (hit frequency here may not be typical).
SMILES,Mtb H37Rv,Arbovirus anti,Mtb betalactam,YopH PTP inh,RecA splice inh,others
Cc1cc(OCC(=O)NC2CC(C)(C)NC(C)(C)C2)c2c(C)c(C)c(=O)oc2c1,x,x,3,x,-1.5,
CCOC(=O)CSc1nc2ccccc2n1CC(=O)N(C(C)C)C(C)C,0%,3,-2,-19,0.7,
COc1ccc(CNC(=O)CSc2nc(-c3ccccc3)cc(-c3cccs3)c2C#N)cc1,-4%,-5,11,-34,-0.2,
CC(C)(C)C(=O)N1CCN(c2c(Cl)cccc2[N+](=O)[O-])CC1,-6%,5,-2,-28,2.4,
COc1ccc2sc(N(CCN(C)C)C(=O)c3ccc4ccccc4c3)nc2c1,x,x,0,x,2.2,
O=C(NCc1ccccc1)c1cc(-c2ccco2)on1,11%,2,-3,-21,4.5,
Cc1ccc(NC(=O)COC(=O)Cn2cnc3c2c(=O)n(C)c(=O)n3C)cc1Cl,-6%,5,-7,x,-2.0,
O=C(CC(NC(=O)C(F)(F)F)c1ccccc1)Nc1nnc(CCc2ccccc2)s1 (stereo unspecified),-3%,3,1,0,-3.7,
Cc1ccc(CN2CCC(n3nccc3NC(=O)c3ccc4c(c3)OCO4)CC2)o1,x,x,u,x,3.0,
O=c1cc(-c2cccs2)oc2ccc(Cl)cc12,-2%,7,28,-40,8.0,
COc1ccc(CN2CCNC(=O)C2CC(=O)NCc2cccc(C)n2)c(OC)c1 (stereo unspecified),2%,x,-1,x,0.1,
COc1ccc(CNC(=O)NC(C)(C)c2cccc(C(C)(C)NC(=O)NCc3ccc(OC)cc3)c2)cc1,2%,0,3,-10,0.6,
CCOc1ccc(N(CC(=O)NC2CCCC2)C(=O)CCC(=O)Nc2ccccn2)cc1,5%,-5,3,-20,x,
FC(F)(F)c1cccc(Cc2noc(CN3CCCC(CN4CCCC4)C3)n2)c1 (stereo unspecified),32%,-13,62,x,0.7,
Cc1cc(F)c(F)cc1C(=O)N1CCCC1,0%,-1,2,x,x,
O=C(Nc1ccc(N2CCCCC2)cc1)c1cccnc1Cl,-7%,-2,7,-34,-1.2,
Cc1noc(C)c1S(=O)(=O)N1CCCC(C(=O)N2CCN(C3CCCCC3)CC2)C1 (stereo unspecified),x,-11,6,-29,2.4,
Cc1ccccc1OCC(O)CN(CCO)Cc1ccccc1 (stereo unspecified),6%,3,-13,x,1.9,
O=C(Nc1ccc(S(=O)(=O)Nc2ncccn2)cc1)c1cc([N+](=O)[O-])ccc1Cl,x,x,-2,x,-0.3,
O=C(Cn1ncc2c([nH]c3ccccc32)c1=O)NCC1CCN(Cc2ccc(F)cc2)CC1,x,x,-1,x,-0.3,
O=C(OCC(=O)N1CCN(c2ccccc2)CC1)c1ccccc1OC(F)F,x,x,0,x,-1.8,
COC(=O)C1CCN(C(=O)COC(=O)C2CCN(S(=O)(=O)c3ccc(C)c(C)c3)CC2)CC1,x,x,-5,x,-3.7,
CCN(CC)S(=O)(=O)c1cccc(-c2nnc(-c3ccc(C)cc3)o2)c1,-5%,-7,-19,-24,2.4,
CC(Sc1nc(-c2ccccc2)cc(C(F)(F)F)n1)C(=O)Nc1sc2c(c1C#N)CCC2 (stereo unspecified),6%,-5,x,-29,3.0,
Cc1ccc(-c2noc(CCC(=O)N3CCCc4ccccc43)n2)cc1,5%,-16,6,-20,12,
# New compounds follow
SMILES,Mtb H37Rv,Arbovirus anti,Mtb betalactam,YopH PTP inh,RecA splice inh,others
O=C1CN(S(=O)(=O)c2ccccc2)CC(=O)N1CCc1ccccc1,-11%,1,-5,-60,0.5,
O=C(NC(=S)NC1CCCCC1)c1ccc(Cl)cc1,x,x,9,x,9.4,
CCOc1ccc(NC(=O)C2C3C=CC4(CN(C(C(=O)OC)C(C)C)C(=O)C24)O3)cc1 (stereo unspecified),x,-1,2,-22,2.9,Arbovirus anti repeat=-3
COc1ccccc1CNC(=O)c1ccc(-c2ccccc2Cl)o1,4%,2,35,-15,12,
COC(=O)Cn1cc(/C=C2\C(=O)NC(=O)N(c3ccc(OC)cc3)C2=O)c2ccccc21,x,x,12,x,-11,
O=c1cc(O)c2c(=O)n(Cc3ccccc3)c3ccccc3c2o1,6%,6,7,x,-4.6,
O=C(CCc1c[nH]c2ccccc12)OCc1ccc(Br)cc1,x,x,100,x,13,
Cc1ccc(Nc2nc(N)nc(CSc3nc4ccccc4s3)n2)cc1,x,-3,26,-18,0.0,
O=C(CN(CC1CCCO1)C(=O)CCC(=O)Nc1nccs1)NCC1CCCO1 (stereo unspecified),-1%,-4,5,-51,0.2,
O=C(NC1(O)C(=O)c2ccccc2C1=O)c1ccccc1,-2%,-5,1,102*,50*,
COc1cc(OC)cc(C(=O)NCCn2ccc3ccccc32)c1,8%,-9,2,-27,1.2,Arbovirus anti repeat=-7
NC(=O)C1CCN(CC(O)COc2ccc(-c3ccccc3)cc2)CC1 (stereo unspecified),x,x,-6,x,-1.8,
Cc1ccc(Sc2ncccc2C(N)=O)cc1,x,x,6,x,-0.1,
COc1cc2c(-c3ccc(O)cc3)nc3c(c(C)nn3-c3ccccc3)c2cc1OC,8%,-22,1,-6,x,
Cc1cc(C(=O)CSc2nnc(-c3cccs3)n2Cc2ccccc2)c(C)n1C,5%,-7,1,-28,2.7,
CCc1noc(C)c1C(=O)Oc1ccc(N(C)S(=O)(=O)c2ccc(C)c(C)c2)cc1,x,x,-3,x,5.5,
CS(=O)(=O)c1ccc(-c2nn[nH]n2)cc1,-6%,2,-3,7,-0.5,
O=C1CC(C(=O)O)S/C(=N\NC(=O)c2ccc(F)cc2)N1 (stereo unspecified),-5%,6,2,-28,0.0,
Cc1ccc(C(=O)NC(=S)Nc2ccccc2N2CCCC2)cc1[N+](=O)[O-],78%,-6,28,-18,10,
CCN(CC)S(=O)(=O)c1ccc(/C=C/C(=O)Nc2ccc(Br)cc2F)cc1,0%,-22,13,-33,3.0,
CS(=O)CSc1nc2c(cc1C#N)CCCC2 (stereo unspecified),-3%,-2,-11,-16,-2.6,
Fc1cccc(-c2nnn3c2nc(Cl)c2ccccc23)c1,57%,-29,x,x,x,
CCC(Cc1ccccc1)NC(=O)CCNS(=O)(=O)c1cc(Br)cnc1N (stereo unspecified),x,x,1,x,-2.6,
COC(CNC(=O)CN1CCN(Cc2ccc(F)cc2Cl)C1=O)OC,x,x,-2,x,1.3,
CCOC(=O)c1nnn2c1nc(N1CCN(C)CC1)c1ccccc12,-1%,x,0,x,0.8,
# Going on with the list.
SMILES,Mtb H37Rv,Arbovirus anti,Mtb betalactam,YopH PTP inh,RecA splice inh,others
CC(C)Cc1nnc(NC(=O)CCS(=O)(=O)c2ccc(Cl)cc2)s1,x,x,-10,x,-0.8,
COCc1cc(CN2CCN(CCCc3ccccc3)C(CCO)C2)ccc1OC (stereo unspecified),x,x,-4,x,-2.1,
Cc1cc(C)cc(C(=O)N(C)C2CCCN(Cc3ccccc3F)C2)c1 (stereo unspecified),x,x,-9,x,-3.6,
Fc1ccccc1/C=N/n1c(COc2ccccc2)n[nH]c1=S,x,x,1,x,2.6,
Cc1ccc(C(c2sc3ncnn3c2O)N2CCCCC2)cc1 (stereo unspecified),-2%,4,2,-47,1.5,Arbovirus anti repeat=1
COc1cc(/C=N/NC(=O)Nc2ccccc2)ccc1OC(C)=O,2%,2,2,-21,0.2,
COc1ccc(NC(=O)NC2(C(=O)N3CCOCC3)CCCCC2)cc1,x,x,1,x,-0.6,
O=c1[nH]c(=S)n(C2CC2)c(O)c1/C=N/N1CCOCC1,1%,-7,8,-9,-4.3,
COc1cccc(NC(=O)c2csc3c2CCCC3)c1,2%,1,11,x,0.2,
Cn1c(-c2ccc(=O)[nH]c2)nc2ccccc21,-1%,1,-3,x,1.2,
S=C(NC1CCCCC1)c1ccc2c(c1)OCO2,0%,-5,-6,-8,-1.7,
CC(C)Oc1ccc(CNC(=O)Cn2c(=O)c3cccn3c3cccnc32)cc1,x,x,1,x,-0.8,
CC(Sc1nnnn1-c1ccc(Cl)cc1)C(=O)NCC(=O)Nc1ccc(F)c(F)c1F (stereo unspecified),5%,10,-1,-3,-2.7,
O=C(Nc1cccnc1Cl)c1cc2ccccc2o1,x,x,-2,x,0.1,
COC(=O)C1=C(C)N(Cc2ccccc2)C(=O)N[C@H]1c1ccc(Br)cc1,19%,x,-1,x,1.6,
CCOc1ccc(-c2nnc(N(CC)C(=O)C3CCC3)s2)cc1,15%,-11,87,7,-3.2,Arbovirus anti repeat=14
CC(=O)Nc1ccccc1-c1nn[nH]n1,-1%,8,-3,-27,-0.2,
Cc1noc(C)c1S(=O)(=O)N1CCC(C(=O)Nc2ccc(OC(F)(F)F)cc2)CC1,6%,5,-8,-20,-2.0,
CC(=O)c1nnn(-c2nc(N3CCCC3)nc(N(c3ccccc3)c3ccccc3)n2)c1C,-1%,3,2,-19,-0.5,
CCCCc1ccc(/C(C)=N/NC(=O)C2CCCC2)cc1,x,x,-6,x,6.7,
CCOc1ccccc1C(=O)Nc1ccccc1C(N)=O,-8%,-9,16,21,0.4,
O=C(OCc1cc(-c2ccccc2)no1)c1ccc2ccccc2n1,-6%,-2,2,-54,4.2,
Cc1cc(C(=O)NC2CCCc3c2cnn3-c2ccc(C)c(C)c2)n(C)n1 (stereo unspecified),x,x,9,x,3.8,
N#C/C(=C\c1cccnc1)C(=O)Nc1ccccc1,-1%,-1,-3,-33,x,
Cc1cc(NS(=O)(=O)c2ccc(NC(=O)c3ccc(Br)o3)cc2)nc(C)n1,0%,-2,-7,x,3.9,

# Four records picked at random from the list so far, as already listed:
SMILES,Mtb H37Rv,Arbovirus anti,Mtb betalactam,YopH PTP inh,RecA splice inh,others
COC(=O)C1=C(C)N(Cc2ccccc2)C(=O)N[C@H]1c1ccc(Br)cc1,19%,x,-1,x,1.6,
O=C(CC(NC(=O)C(F)(F)F)c1ccccc1)Nc1nnc(CCc2ccccc2)s1 (stereo unspecified),-3%,3,1,0,-3.7,
O=C(Nc1cccnc1Cl)c1cc2ccccc2o1,x,x,-2,x,0.1,
O=C(Cn1ncc2c([nH]c3ccccc32)c1=O)NCC1CCN(Cc2ccc(F)cc2)CC1,x,x,-1,x,-0.3,

# (list continues)
SMILES,Mtb H37Rv,Arbovirus anti,Mtb betalactam,YopH PTP inh,RecA splice inh,others
CN1CCc2ccc(NC(=O)c3ccc(C(F)(F)F)cc3)cc2C1,x,x,10,x,6.9,
N#Cc1c(N)sc2c1CCN(C(=O)OCc1ccccc1)C2,0%,-16,-2,-16,1.6,
COc1ccccc1OCC(=O)N(Cc1nnc(-c2ccccc2Cl)o1)C1CC1,x,x,-7,x,-0.3,
NS(=O)(=O)c1ccc(CNC(=O)Cc2c(F)cccc2Cl)cc1,3%,0,4,x,0.1,
CCOC(=O)c1c(C)[nH]c(C)c1C(=O)COC(=O)CNC(=O)c1ccc(OCC)cc1,-2%,-4,36,-152,2.2,
CC1(C)Oc2ccc(C(=O)NC3CCCCC3)cc2N(CC#N)C1=O,x,x,-5,x,-1.2,
Cc1ccc(C(=O)N/N=C\C=C\c2ccc(Br)cc2)cn1,8%,3,10,x,-2.1,
Cc1cccc(NC(=O)CSCC(=O)Nc2cc(S(=O)(=O)N3CCOCC3)ccc2N2CCCC2)c1,x,x,-7,x,-1.3,
CN(C(=O)COc1ccccc1)C1CCS(=O)(=O)C1 (stereo unspecified),-3%,-4,1,x,-2.9,
O=C(NNC(=O)c1ccccc1-c1ccccc1C(=O)O)c1ccccc1,-5%,-2,4,x,-0.1,
Cc1cccc(N2C(=S)NC3c4ccccc4OC2(C)C3C(=O)N(C)C)c1 (stereo unspecified),9%,10,-1,x,-0.5,
Nc1nc2n(n1)C(c1c(F)cccc1Cl)CC(c1ccc(F)cc1)N2 (stereo unspecified),-4%,2,u,-13,1.8,Arbovirus anti repeat=9
COc1cc2c(cc1OC)CN(C(=O)CN1CCN(S(=O)(=O)c3ccc(C)c(C)c3)CC1)CC2,x,x,0,x,0.4,
CN(C)c1ccc(/C=C(\C#N)C(=O)NCc2ccco2)cc1,3%,-7,4,-23,-14,
CCCCNc1nc2c(c(=O)[nH]c(=O)n2C)n1CCOc1ccccc1,-7%,9,-3,-41,-4.3,
Cc1nn(C)cc1CN(C)C(=O)c1sc2cccc(Cl)c2c1Cl,-8%,4,3,-8,2.0,Arbovirus anti repeat=16
COc1ccc(-c2cc(C(F)(F)F)n3nc(C)cc3n2)cc1,2%,-4,9,-45,-1.1,Arbovirus anti repeat=-1
CCOC(=O)C1=C(NC(=O)c2ccc(Br)o2)Nc2ccccc2N=C1,20%,3,8,-25,-0.9,
CCOC(=O)C1=C(C)NC(=O)NC1c1c(C)nn(-c2ccccc2)c1Cl (stereo unspecified),-11%,10,-4,-4,1.2,
COC(=O)c1ccc(COC(=O)C2CCN(S(=O)(=O)c3c(Cl)cccc3Cl)CC2)o1,x,x,-6,x,6.7,
